# Assay outcomes deposited in PubChem BioAssay by Broad Institute.
# STK33 inh – blocks human STK33 kinase activity | purified STK33, MBP phosphorylation, ADP-Glo luminescence | actives 0.073% (n = 320,000) | inhibition, % at 10 µM | AID 2661;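 active means inhibition at or above 25%, using the most active replicate where run in duplicate; inactive means inhibition below 25%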
# Target sequence (Q9BYT3 whole entry, looked up): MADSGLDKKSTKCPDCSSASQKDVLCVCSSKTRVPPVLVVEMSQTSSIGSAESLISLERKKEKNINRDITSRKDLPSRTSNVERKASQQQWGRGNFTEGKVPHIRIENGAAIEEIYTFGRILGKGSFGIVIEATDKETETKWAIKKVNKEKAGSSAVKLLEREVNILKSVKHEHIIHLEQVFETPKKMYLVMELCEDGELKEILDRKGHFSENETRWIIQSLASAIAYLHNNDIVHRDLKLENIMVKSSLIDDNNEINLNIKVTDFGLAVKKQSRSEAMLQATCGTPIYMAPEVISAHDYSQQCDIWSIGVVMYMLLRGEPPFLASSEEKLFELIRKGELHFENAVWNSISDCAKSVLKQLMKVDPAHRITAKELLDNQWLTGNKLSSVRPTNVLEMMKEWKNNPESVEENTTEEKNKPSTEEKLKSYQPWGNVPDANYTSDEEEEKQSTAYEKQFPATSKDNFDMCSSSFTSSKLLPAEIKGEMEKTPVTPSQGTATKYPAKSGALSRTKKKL
# * hit, by the source's call. Not all compounds are listed, and most or all hits are left out here.
SMILES,STK33 inh
N=c1oc2ccc([N+](=O)[O-])cc2cc1C(=O)NCc1ccccc1,-1.1
Cc1cccc(OCCCC(=O)Nc2nnc(C3CCCO3)s2)c1C (configuration not stated),-0.3
O=C(CCC(=O)N1CCc2ccccc21)Nc1ccccc1,-1.0
Cc1nn(-c2ccccc2)c2c1C(O)n1c(nc3ccccc31)S2 (configuration not stated),-0.9
Cc1ccc(C(C)C)c(OCC(=O)c2c(O)c3ccccc3oc2=O)c1,-0.2
CC(=O)N1N=C(c2cccc(Cl)c2)OC1c1ccc(C(C)C)cc1 (configuration not stated),1.0
CC(OC(=O)CC1CC2CCC1C2)C(=O)Nc1ccc(N2CCOCC2)cc1 (configuration not stated),2.6
COc1ccccc1NC1=NC(c2ccc(Cl)cc2)N=C(N)N1 (configuration not stated),-0.2
CCOC(=O)N1CCC(NC(=O)c2ccc3c(=O)n4c(nc3c2)CCCC4)CC1,0.3
OCCN(CCO)CC(O)CN1c2ccccc2Sc2ccccc21 (configuration not stated),-0.4
COc1ccc(C2CC(=O)C=C(NC3CCCC3)C2)cc1 (configuration not stated),-0.6
CCOC(=O)C1=C(CC)Nc2ccccc2N=C1NC(=O)c1ccc(S(=O)(=O)N2CCOCC2)cc1,-0.4
CCC1=NN(C(=O)C(=O)Nc2ccc(OC)cc2)C(O)(C(F)(F)F)C1 (configuration not stated),2.5
CCC(C)(C)NC(=O)C(c1ccccc1Cl)N(Cc1cccnc1)C(=O)CCC(=O)Nc1cc(C)on1 (configuration not stated),-0.3
CCN1CCN(S(=O)(=O)c2cccc([N+](=O)[O-])c2)CC1,-0.9
O=C(Nc1ccc2c(c1)OCCO2)C1CCN(S(=O)(=O)c2cccc3nsnc23)CC1,-2.9
COCCCn1c(C(=O)Nc2ccc3c(c2)OCO3)cc2c(=O)n3ccccc3nc21,-0.3
Cc1cccc(/C=C\c2nc3ccccc3c(=O)[nH]2)c1,1.4
O=C(Oc1cc(Cl)ccc1Cl)c1ccc(N2CCOCC2)c([N+](=O)[O-])c1,1.1
CCOC(=O)c1cccc(NC(=O)COc2nsnc2N2CCOCC2)c1,0.1
COc1ccc(C)cc1N(CC(N)=O)S(=O)(=O)c1ccc(C)cc1,-1.6
Cn1c(CSCc2ccc(Cl)cc2)nnc1SCC(=O)Nc1nc2ccccc2s1,-0.6
COc1ccccc1N/C=C/C(=C(C#N)C#N)N(C)C,0.4
Cc1ccc(C(=O)N2C3C=CC(C3)C2(C(F)(F)F)C(F)(F)F)cc1 (configuration not stated),-1.5
COc1ccc(C(=O)NCc2cn3c(C)csc3n2)cc1OC,-1.0
O=C(O)C1C2C=CC(C2)C1C(=O)Nc1ccc(C(=O)N2CCCCC2)c(Cl)c1 (configuration not stated),-1.5
NS(=O)(=O)c1ccc(CCNC(=O)CSc2nnc3ccccn23)cc1,0.5
Cc1noc(C)c1C(=O)NC1CCCc2ccccc21 (configuration not stated),-1.5
CC(=O)c1cccc(N(C(=O)CNC(=O)c2cccs2)C(C(=O)NCC2CCCO2)c2ccccc2)c1 (configuration not stated),-0.8
Cc1c(CCC(=O)O)c(=O)oc2c(C)c3occ(-c4ccc(Br)cc4)c3cc12,0.1
Cc1ccccc1NS(=O)(=O)c1ccc(F)cc1,-1.0
COc1ccc(-c2nn(-c3ccccc3)cc2/C=C2/SC(=S)N(CCCC(=O)O)C2=O)c(C)c1,1.0
COC(=O)Cc1cc(=O)n2[nH]c(SC)nc2n1,-0.2
CC(=O)C1=C(O)CC(c2ccccc2)CC1=NCCc1c(C)[nH]c2ccccc12 (configuration not stated),-1.1
COC(=O)c1ccc(C(=O)OC)c(NC(=O)CSCc2ccc(Cl)cc2)c1,-0.1
COC(=O)[C@@]1(Cc2ccc(F)cc2)[C@H]2c3cc(C(=O)N(C)C)n(Cc4ccc(OC)c(OC)c4)c3C[C@H]2CN1C(=O)c1ccccc1,0.2
CCN(CC)c1ccc(/C=N/NC(=O)c2ccc3nc[nH]c3c2)cc1,1.2
Cc1ccc(CNC(=O)CS(=O)(=O)Cc2nc(-c3ccc(C)cc3)oc2C)cc1,7.7
Cn1c(SCC(=O)Nc2ccc(F)cc2)nnc1-c1cccnc1,-1.7
COc1ccc(C2C(C(N)=O)=C(C)Nc3nc(-c4ccccc4Cl)nn32)c(OC)c1 (configuration not stated),2.1
CC(=O)c1c(C)n(-c2ccc(C)cc2)c2ccc(O)cc12,-0.5
Cc1ccc(C)n1-c1nnc(N2CCC(C(=O)NCCCN3CCN(C)CC3)CC2)s1,0.3
O=C(NCCNC(=O)c1ccccc1[N+](=O)[O-])c1ccccc1[N+](=O)[O-],-0.8
COc1ccc(CC(=O)Oc2ccccc2C)cc1S(=O)(=O)N1CCOCC1,-0.3
NC1=NC2(CCCCC2)N(c2cccc(Cl)c2)C(N)=N1,-1.1
COc1cccc(/C=N/NC(=O)c2nnn(-c3nonc3N)c2C(C)C)c1,-1.2
CCc1c(C)nc2ccc(Br)cc2c1SCCC#N,2.2
Cc1cc(C)cc(OC(=O)CCN2C(=O)C3C4C=CC(C5CC45)C3C2=O)c1 (configuration not stated),-1.4
O=C(COc1ccc2c3c(c(=O)oc2c1)CCCC3)N[C@@H](Cc1ccccc1)C(=O)O,-0.7
O=C(c1ccc(F)cc1Cl)N1CCN(S(=O)(=O)c2cccs2)CC1,-0.6
# (further entries)
SMILES,STK33 inh
CCC1CCCCN1CC(=O)c1c(C)[nH]c2ccc(OC)cc12 (configuration not stated),0.1
Clc1ccccc1-c1ccc(/C=N/n2cnnc2)o1,1.0
COCCn1c(Cc2ccccc2)nnc1SCC(=O)N1CCOCC1,-0.9
O=C(NC(=S)Nc1ccc(CN2CCCCC2)cc1)c1ccco1,-0.8
Cc1cc(OCC(=O)O/N=C(\N)c2ccccc2)ccc1Br,-1.9
Cc1ccc(-n2nnnc2SCC(=O)N2c3ccccc3NC(=O)C2(C)C)cc1,-1.0
COc1ccc(/C=C(\NC(=O)c2ccc(Cl)cc2)C(=O)NCCCn2ccnc2)cc1OC,1.3
N#CCC(=O)Nc1ccc(C(=O)NCc2cccc(Cl)c2)cc1,-2.1
NC(=O)[C@@H]1CCCCNc2c(I)cc([N+](=O)[O-])cc2C(=O)N[C@@H](CCC(=O)O)C(=O)N[C@@H](CO)C(=O)N1,-1.3
O=C(CCNS(=O)(=O)c1cccs1)NCc1cccs1,-1.8
CC(C)c1cc(C(=O)N2CCCC(Nc3ccc(F)cc3)C2)nc(N)n1 (configuration not stated),-0.8
Nc1ccc(NC(=O)c2cccc(C(=O)Nc3ccc(N)cc3Cl)c2)c(Cl)c1,-0.1
COc1ccc(CCOC(=O)c2ccc(NC(=O)CC#N)cc2)cc1,-1.3
CCOc1ccc(S(=O)(=O)N2CCC(C(=O)NCC3CCCO3)CC2)cc1C (configuration not stated),-0.8
CN=C1SC(CC(=O)Nc2sc(C)c(C)c2C(=O)OC)C(=O)N1C (configuration not stated),-3.1
CCOC(=O)N1CCN(C(=O)COc2cccc3c2CCN(Cc2cccc(C)c2)C3=O)CC1,1.6
CCN(CC)C(=O)c1[nH]cnc1C(=O)N[C@@H](Cc1ccccc1)C(=O)OC(C)(C)C,-1.6
COc1cc(C(=O)NCc2cccc3ccccc23)cc(Cl)c1OC,-2.8
Cc1ccc(NC(=O)CSc2n[nH]c(-c3ccccn3)n2)cc1,-2.6
Nc1nc2ncc(C(=O)c3cc(F)ccc3O)cc2s1,-0.5

# The final three compounds of the part above come first, to join the parts.
SMILES,STK33 inh
COc1cc(C(=O)NCc2cccc3ccccc23)cc(Cl)c1OC,-2.8
Cc1ccc(NC(=O)CSc2n[nH]c(-c3ccccn3)n2)cc1,-2.6
Nc1nc2ncc(C(=O)c3cc(F)ccc3O)cc2s1,-0.5
COc1ccc(N(C(=O)c2cnccn2)C(C(=O)NC2CCCCC2)c2ccc(Cl)cc2)cc1 (configuration not stated),-1.1
O=C(Nc1ccc(CN2CCOCC2)cc1)c1ccco1,-0.8
COc1cccc(-n2c(=O)n(Cc3ccccc3)c(=O)c3[nH]cnc32)c1C,-3.5
CC(CC(C)C(=O)Nc1ccccc1C(C)(C)C)C(=O)O (configuration not stated),2.3
O=C(c1ccccc1)c1cccs1,-0.3
CCCNC(=O)c1cc(-c2ccco2)on1,1.7
CCOC(=O)c1cc(CC)sc1NC(=O)c1ccc(N2C(=O)CCC2=O)cc1,0.6

# Structures from the list above containing a Cl atom:
SMILES,STK33 inh
CC(=O)N1N=C(c2cccc(Cl)c2)OC1c1ccc(C(C)C)cc1 (configuration not stated),1.0
COc1ccccc1NC1=NC(c2ccc(Cl)cc2)N=C(N)N1 (configuration not stated),-0.2
CCC(C)(C)NC(=O)C(c1ccccc1Cl)N(Cc1cccnc1)C(=O)CCC(=O)Nc1cc(C)on1 (configuration not stated),-0.3
O=C(Oc1cc(Cl)ccc1Cl)c1ccc(N2CCOCC2)c([N+](=O)[O-])c1,1.1
Cn1c(CSCc2ccc(Cl)cc2)nnc1SCC(=O)Nc1nc2ccccc2s1,-0.6
O=C(O)C1C2C=CC(C2)C1C(=O)Nc1ccc(C(=O)N2CCCCC2)c(Cl)c1 (configuration not stated),-1.5
COC(=O)c1ccc(C(=O)OC)c(NC(=O)CSCc2ccc(Cl)cc2)c1,-0.1
COc1ccc(C2C(C(N)=O)=C(C)Nc3nc(-c4ccccc4Cl)nn32)c(OC)c1 (configuration not stated),2.1
NC1=NC2(CCCCC2)N(c2cccc(Cl)c2)C(N)=N1,-1.1
O=C(c1ccc(F)cc1Cl)N1CCN(S(=O)(=O)c2cccs2)CC1,-0.6
Clc1ccccc1-c1ccc(/C=N/n2cnnc2)o1,1.0
COc1ccc(/C=C(\NC(=O)c2ccc(Cl)cc2)C(=O)NCCCn2ccnc2)cc1OC,1.3
N#CCC(=O)Nc1ccc(C(=O)NCc2cccc(Cl)c2)cc1,-2.1
Nc1ccc(NC(=O)c2cccc(C(=O)Nc3ccc(N)cc3Cl)c2)c(Cl)c1,-0.1
COc1cc(C(=O)NCc2cccc3ccccc23)cc(Cl)c1OC,-2.8
COc1ccc(N(C(=O)c2cnccn2)C(C(=O)NC2CCCCC2)c2ccc(Cl)cc2)cc1 (configuration not stated),-1.1
